Compound activity from PubChem BioAssay.
NPYLR7 ag: activates Aedes aegypti NPYLR7 receptor | HEK293T NPYLR7/Galpha15, GCaMP6s calcium fluorescence | activation, % at 10 µM | 270,000 compounds, 0.15% hits; in the data active = activation above about 40%;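 also: 0% = vehicle and 100% = reference agonist at the receptor; some compounds past the cut are filed as inactive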
NPYLR7 ag max-min: further read-out of NPYLR7 ag, marked with its call; activation, %; measured here: Max-Min RFU normalised activation; some inactives read as strong as hits;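 span of the calcium signal over five minutes; 0% = vehicle and 100% = native peptide agonist; compound fluorescence can raise it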
* hit, by the source's call; & = joins results of further samples. Only part of the results is shown, so the mix of outcomes need not match the whole.

Order of values – NPYLR7 ag, NPYLR7 ag max-min
1) Cc1ccc(-c2nc3cc(C)ccn3c2NC(=O)CC(C)CC(C)(C)C)cc1 (stereo not given)
    -5, 1
2) CCOC(=O)N1CCN(C(=O)CSc2ccc(-c3sc(C)nc3C)nn2)CC1
    -9, -17
3) O=C(Nc1ccc2c(c1)CCC2)C1=CC=CN2CCS(=O)(=O)N=C12
    -3, -1
4) O=c1[nH]c(SCc2cccc(C(F)(F)F)c2)nc2c1cnn2CCO
    3, 2
5) O=C(Cn1c(=O)n(-c2ccc(Cl)c(Cl)c2)c(=O)c2ccccc21)NCCN1CCOCC1
    4, 17
6) CC1NC(=S)N(C2CCN(S(C)(=O)=O)CC2)C1=O (stereo not given)
    9, 3
7) Cc1ccccc1CN(C)Cc1nc2c([nH]1)c(=O)n(C)c(=O)n2C
    10, 8
8) CCNC(=S)N1CCC(C(NC(=O)c2cccc(OC)c2)C(=O)NCCCOC)CC1 (stereo not given)
    -7, 2
9) Cc1cc(NC(=O)C(C)N2CCN(C(=O)N3CCOCC3)CC2)on1 (stereo not given)
    6, 3
10) CN1CCN(Cc2ccc(S(C)(=O)=O)cc2)CC1C(=O)O (stereo not given)
    15, 11
11) CCCCN(CC(=O)Nc1cc(-c2ccccc2)nn1-c1ccc(OC)cc1)C(=O)c1ccc(C(F)(F)F)cc1
    1, 14
12) CN(Cc1cnn(C)c1)C(=O)c1ccc(Oc2ccccc2)o1
    -2, -1
13) COc1ccc(C(=O)NNC(=O)CSc2nnc(Cn3cnc4ccccc43)n2C)cc1
    -1, -2
14) CCc1noc(CNC2CS(=O)(=O)CC2N2CCCCC2)n1 (stereo not given)
    3, 1
15) Cc1cc(Br)ccc1NC(=O)CN(C)C(=O)c1cncn1-c1ccc(F)cc1
    -10, -8
16) CCCCNC(=O)Nc1ccc(N2CCCCC2)c(C(=O)NCCCOC)c1
    31, 28
17) CCOC(=O)C(C#N)=Cc1ccc(OC(C)C(=O)N(C)C)c(OCC)c1 (stereo not given)
    0, 6
18) CCCCCCCCC(=O)Nc1cccc(C2SCC(=O)N2c2cc(C)ccc2F)c1 (stereo not given)
    13, 14
19) CCOc1ccc(-c2ccc(=O)n(CCCC(=O)N3CCC(C(N)=O)CC3)n2)cc1
    -6, -10
20) Cc1cc(Nc2ccc3c(n2)C(=O)N([C@H](C)C(=O)NCC2CCCCC2)C3)n(C)n1
    5, 1
21) Cc1c(C(=O)O)cnc2c([N+](=O)[O-])cnn12
    -12, -16
22) CC1(C)C2CCC1(CS(=O)(=O)O)C(=O)/C2=C\c1ccc(/C=C2\C(=O)C3(CS(=O)(=O)O)CCC2C3(C)C)cc1
    1, 7
23) CCC/C=C/c1cccc(-n2cnnc2)c1
    0, 0
24) Cc1cc(NC(=O)C2CC(=O)N(c3ccccc3C)C2)n(-c2nc(-c3ccccc3)cs2)n1 (stereo not given)
    -8, -15
25) O=C(Cn1cc(/C=C/c2[nH]c(=O)[nH]c(=O)c2[N+](=O)[O-])c2ccccc21)Nc1ccc(F)cc1
    0, -1
26) Nc1c(C(=O)OCC2CCCO2)c2nc3ccccc3nc2n1-c1ccc2c(c1)OCCO2 (stereo not given)
    5, 13
27) N[C@@H](CO)C(=O)Nc1ccc(Cc2ccccc2)cc1
    2, 0
28) Cc1nn(C)c(C)c1NC(=O)Cn1nnnc1C1CCCC1
    5, 4
29) Cc1c(C(=O)N2CCCn3nc(C(=O)NC4CC4)cc3C2)cnc2ccnn12
    -2, -5
30) O=C(Cc1csc(NC(=O)c2ccc[nH]c2=O)n1)Nc1ccc2c(c1)OCCO2
    2, 5
31) O=C1C2C3C=CC(C3)C2C(=O)N1c1ccc([N+](=O)[O-])cc1Br (stereo not given)
    -4, -4
32) Cc1ccc(C(=O)NCCOc2ccc(-c3ccc(F)cc3)nn2)cc1
    -3, -2
33) Cc1c(C(=O)N2CCCCC2C)c(C(F)(F)F)nn1C1CCCN(C)C1 (stereo not given)
    -6, -6
34) CC(C)C(=O)Nc1nn(Cc2ccc(CN3C(=O)CN(C)C(=O)c4ccccc43)cc2)c2ccccc12
    17, 18
35) CCc1oc(C(=O)N2CCCC(O)(CO)CC2)cc1CN(CC)CC (stereo not given)
    3, 2
36) Cn1nnnc1NCc1ccc2c(c1)OCCO2
    1, 1
37) COc1ccnc(N2CCCN(C(=O)c3ccc[nH]c3=S)CC2)n1
    7, 4
38) CC(C)(O)C#Cc1cccc(C(=O)NCCc2c[nH]c3ccccc23)c1
    10, 8
39) O=C(c1ccccc1Cl)N1N=C(c2ccccc2)CC1c1nc2ccccc2[nH]1 (stereo not given)
    1, 1
40) O=C(NC(=O)c1cccc(C(F)(F)F)c1)OC1CCS(=O)(=O)C1 (stereo not given)
    1, 24
41) COc1ccc2nc(N(Cc3ccccc3)C(=O)C3=COCCO3)sc2c1
    0, -7
42) O=C(NCCCOc1cccnc1)c1nc(N2CCCC2)nc2c1CCCC2
    8, -1
43) CC(=NNC(=S)NC(C)C)c1cccs1
    -10, -18
44) O=C(C1CCCN1C(=O)c1cc(F)ccc1F)N1CCSCC1 (stereo not given)
    11, 6
45) CN(Cc1cccc(O)c1)C(=O)C1CCCCC1C(F)(F)F (stereo not given)
    5, 10
46) CC(C)Oc1ncccc1CNCC1CNc2c(C(N)=O)cnn2C1 (stereo not given)
    4, 3
47) O=C(c1cccc(C(F)(F)F)c1)N(CC(=O)N1CCc2sccc2C1c1ccc(Cl)cc1)C1CC1 (stereo not given)
    29, 30
48) CC(C)(C)C(=O)NC(NC(=S)Nc1cccc(C(=O)O)c1)C(Cl)(Cl)Cl (stereo not given)
    -15, -21
49) Cc1ccc(C2(O)CCN(CCSC(C)C)CC2)nc1
    7, 2
50) CN1CCN(n2c3c(c(SCC(=O)N4CCN(c5ccccc5)CC4)nc2=O)CCC3)CC1
    -4, -10

(next part)
Order of values – NPYLR7 ag, NPYLR7 ag max-min
51) Cc1ncc([N+](=O)[O-])n1CCNC(=S)Nc1c(Cl)cccc1Cl
    -9, -13
52) CC(=O)Nc1ccc(N2C(=O)CSC2c2ccccc2)cc1 (stereo not given)
    -5, -10
53) CCOC(=S)SCC(=O)N(c1ccccc1)c1nccs1
    11, 11
54) O=C(Nc1nc2ccc(F)cc2s1)c1ccc(CN2CCOCC2)cc1
    1, 1
55) Cc1ccc(-n2c(C(C)N(CCc3ccccc3)C(=O)Nc3ccccc3F)nc3ccccc3c2=O)cc1C (stereo not given)
    30, 30
56) Cc1c(C)n2c3c(=O)n(Cc4ccc(F)cc4)c(=O)n(C)c3nc2n1CCCO
    -10, -10
57) COc1ccc(OC)c(NC(=O)C=Cc2ccc3c(c2)OCCCO3)c1
    1, 3
58) Clc1ccccc1-n1ncc2c1ncn1c(-c3ccccc3)nnc21
    3, 2
59) Cc1nnc(CN2CCCC2c2ccccn2)s1 (stereo not given)
    2, 1
60) COc1cc(F)c(S(=O)(=O)Oc2cccc3c2CCC3=O)cc1OC
    -4, -5
61) CCOc1ccccc1C1c2cccn2CCCN1Cc1ccccc1C (stereo not given)
    15, 19
62) O=C(NCCSCc1cccs1)Nc1cc(N2CCCC2=O)ccc1F
    16, 9
63) O=C(NC(c1ccc(-c2ccccc2)cc1)c1cnccn1)C1CCN(Cc2ccc(Cl)c(Cl)c2)CC1 (stereo not given)
    -1, -4
64) CCCCOc1ccc(-c2c(C#N)c(N)nc(SCc3ccc(Cl)cc3)c2C#N)cc1
    -2, -7
65) Cn1c(-c2ccccc2)c[n+]2c1CCCCC2
    2, 37
66) CCOC(=O)c1c(N)sc(C)c1CC
    1, 1
67) Cc1nn(-c2ccccc2Cl)c2sc(C(=O)OCc3nc4ccsc4c(=O)[nH]3)cc12
    -3, -3
68) CN(CCc1ccccn1)C(=O)CN1C(=O)C(Oc2ccccc2)C1c1ccncc1 (stereo not given)
    0, 3
69) CN(Cc1ncc[nH]1)Cc1cn[nH]c1C(=O)O
    -9, -12
70) CC1c2cccn2CCN1CC(=O)Nc1ccc(CN2CCOCC2)cc1 (stereo not given)
    0, 15
71) O=C(NCc1c(F)cccc1Cl)c1ccc(-c2ccc3c(c2)OCCO3)s1
    4, 2
72) OCCNc1ncnc2c1cnn2-c1ccc(F)cc1
    -1, -1
73) COc1cc(OC)cc(N2C(=O)CC3CS(=O)(=O)CC32)c1 (stereo not given)
    -1, 6
74) O=C(CCc1nnc(-c2ccc(OCc3ccccc3Cl)cc2)[nH]c1=O)NCc1ccccn1
    8, 6
75) O=S(=O)(Nc1c(F)cccc1Br)c1cc(Cl)cc(Cl)c1
    -2, 11
76) Cc1ccc(C(=O)CCC(=O)O)s1
    2, 11
77) NC(=O)C1CCCN(c2ccc(CNC(=O)CC3CCCO3)cc2)C1 (stereo not given)
    6, 6
78) N#Cc1ccc(-n2ncc3c2CCN(C(=O)C2CCOC2)C3)cc1 (stereo not given)
    1, 39
79) CCC(=O)N1CCCC2(CCN(Cc3ccnn3-c3ccccc3)C2)C1 (stereo not given)
    0, 1
80) CCc1[nH]c2ccc(CNC(=O)c3ccc4[nH]c(=O)[nH]c4c3)cc2c1C
    0, -6
81) CS(=O)(=O)N1CCC(c2nn(CC(=O)c3ccccc3)c(=O)n2-c2cccs2)CC1
    -1, 8
82) COc1ccc(CCN(C)C(=O)c2cccnc2Oc2ccc(Cl)cc2)cc1OC
    -10, -15
83) Cc1nc(N2CCN(C(=O)CCCc3ccccc3)CC2)cc(-n2cccn2)n1
    -9, -13
84) c1ccc(SCc2cn3cccnc3n2)nc1
    5, 8
85) N#Cc1c(-c2cccnc2)cc(-c2ccc(F)cc2)nc1N
    -3, -5
86) Cc1ncsc1CCC(=O)N(Cc1c(C)nn(C)c1C)C1CC1
    0, -8
87) COc1cc(/C=N\Nc2ncnc3nc[nH]c23)cc(Br)c1O
    0, -2
88) NC(=O)C(c1ccccc1)(c1ccccc1)[C@@H]1CCN(CCc2ccc3c(c2)CCO3)C1
    -10&-7, -17&-10
89) O=C(Cc1ccsc1)NC1CC(=O)N(Cc2ccccc2C(F)(F)F)C1 (stereo not given)
    11, 6
90) COC(=O)c1csc(CN(C(=O)COc2ccc(Cl)cc2)C2CCCCC2)n1
    -2, -12
91) CCN1C(=O)C(=Cc2ccc(OC)c(O)c2)SC1=S
    -1, -3
92) COC(=O)Cn1cnc2c(nnn2-c2ccc(OC)cc2)c1=O
    4, 8
93) COc1ccc(Nc2cnn(-c3ccccc3)c(=O)c2Cl)cc1
    9, 8
94) COc1ccc(CCN(C)c2cc(-c3ccccc3)nc(SCc3ccc(C(=O)N4CCCC4)o3)n2)cc1OC
    7, -7
95) COCCNc1nc2c(c(=O)[nH]c(=O)n2C)n1Cc1ccccc1Cl
    -3, -3
96) Cc1nccn1-c1ccc(CNC(=O)N2CCCC(C)C2)cc1F (stereo not given)
    -24, -24
97) COc1ccccc1C(=O)N/N=c1\oc2ccccc2cc1-c1nc2ccccc2[nH]1
    -3, -8
98) CCCc1cc(C(=O)N2CCCC(CNC(=O)c3ccccc3Cl)C2)n(C)n1 (stereo not given)
    -21, -26
99) COc1ccc(N2CCN(C(c3ccco3)C3Sc4nc(-c5ccco5)nn4C3=O)CC2)cc1 (stereo not given)
    -1, -3
100) Cc1cccc(C2CC(=O)Nc3c2c(C)nn3-c2ccc3nnc(C)n3n2)c1 (stereo not given)
    -15, -19

Next entries follow:
Order of values – NPYLR7 ag, NPYLR7 ag max-min
101) CCC(=O)Nc1ccc(SCc2cc(C)ccc2C)nn1
    10, -1
102) CC(NC(=O)C1CSCN1C(=O)C(C)(C)C)c1cccs1 (stereo not given)
    -19, -23
103) CCCc1cn(C2CCN(S(=O)(=O)c3cccs3)CC2)nn1
    1, -2
104) Cc1c(C(=O)NCc2ccc([N+](=O)[O-])cc2)sc(=O)n1Cc1ccc(S(=O)(=O)N(C)C)cc1
    16, 8
105) CCc1ccc([C@H]2N[C@@](CC(C)C)(C(=O)OC)[C@H]3C(=O)N(C)C(=O)[C@@H]23)nc1
    8, 8
106) CC1CCc2c(sc3ncnc(N4CCN(C)CC4)c23)C1 (stereo not given)
    1, -3
107) Cc1nc(-c2ccc(NC(=O)c3ccnc(NC4CC4)c3)cc2)oc1C
    -2, -1
108) CCOC(=O)C1CCCN(C(c2ccc(OCC)c(OC)c2)C2Sc3nc(C)nn3C2=O)C1 (stereo not given)
    -1, -2
109) CCOC(=O)c1csc(N(C(=O)c2cc(C)oc2C)C2CC2)n1
    1, -1

From no. 93 as far as 109, copied from above:
Order of values – NPYLR7 ag, NPYLR7 ag max-min
93) COc1ccc(Nc2cnn(-c3ccccc3)c(=O)c2Cl)cc1
    9, 8
94) COc1ccc(CCN(C)c2cc(-c3ccccc3)nc(SCc3ccc(C(=O)N4CCCC4)o3)n2)cc1OC
    7, -7
95) COCCNc1nc2c(c(=O)[nH]c(=O)n2C)n1Cc1ccccc1Cl
    -3, -3
96) Cc1nccn1-c1ccc(CNC(=O)N2CCCC(C)C2)cc1F (stereo not given)
    -24, -24
97) COc1ccccc1C(=O)N/N=c1\oc2ccccc2cc1-c1nc2ccccc2[nH]1
    -3, -8
98) CCCc1cc(C(=O)N2CCCC(CNC(=O)c3ccccc3Cl)C2)n(C)n1 (stereo not given)
    -21, -26
99) COc1ccc(N2CCN(C(c3ccco3)C3Sc4nc(-c5ccco5)nn4C3=O)CC2)cc1 (stereo not given)
    -1, -3
100) Cc1cccc(C2CC(=O)Nc3c2c(C)nn3-c2ccc3nnc(C)n3n2)c1 (stereo not given)
    -15, -19
101) CCC(=O)Nc1ccc(SCc2cc(C)ccc2C)nn1
    10, -1
102) CC(NC(=O)C1CSCN1C(=O)C(C)(C)C)c1cccs1 (stereo not given)
    -19, -23
103) CCCc1cn(C2CCN(S(=O)(=O)c3cccs3)CC2)nn1
    1, -2
104) Cc1c(C(=O)NCc2ccc([N+](=O)[O-])cc2)sc(=O)n1Cc1ccc(S(=O)(=O)N(C)C)cc1
    16, 8
105) CCc1ccc([C@H]2N[C@@](CC(C)C)(C(=O)OC)[C@H]3C(=O)N(C)C(=O)[C@@H]23)nc1
    8, 8
106) CC1CCc2c(sc3ncnc(N4CCN(C)CC4)c23)C1 (stereo not given)
    1, -3
107) Cc1nc(-c2ccc(NC(=O)c3ccnc(NC4CC4)c3)cc2)oc1C
    -2, -1
108) CCOC(=O)C1CCCN(C(c2ccc(OCC)c(OC)c2)C2Sc3nc(C)nn3C2=O)C1 (stereo not given)
    -1, -2
109) CCOC(=O)c1csc(N(C(=O)c2cc(C)oc2C)C2CC2)n1
    1, -1
